High-throughput results as filed in PubChem BioAssay.
VDR inh = blocks the human vitamin D receptor; P11473; VDR-SRC2-3 peptide fluorescence polarization, 2 h; Potency, µM, for inactives: max response, negative = inhibition, hits mostly inhibitors; 400,000 tested, 0.93% active; AID 504847; active means well fitted inhibition curve with a large enough effect; inconclusive means small, poorly fitted or top-dose-only effect, or another doubt; inactive means no such curve, though single readings can be large or run the other way; further: series mostly up to about 120 µM
Target sequence (P11473 whole entry, looked up): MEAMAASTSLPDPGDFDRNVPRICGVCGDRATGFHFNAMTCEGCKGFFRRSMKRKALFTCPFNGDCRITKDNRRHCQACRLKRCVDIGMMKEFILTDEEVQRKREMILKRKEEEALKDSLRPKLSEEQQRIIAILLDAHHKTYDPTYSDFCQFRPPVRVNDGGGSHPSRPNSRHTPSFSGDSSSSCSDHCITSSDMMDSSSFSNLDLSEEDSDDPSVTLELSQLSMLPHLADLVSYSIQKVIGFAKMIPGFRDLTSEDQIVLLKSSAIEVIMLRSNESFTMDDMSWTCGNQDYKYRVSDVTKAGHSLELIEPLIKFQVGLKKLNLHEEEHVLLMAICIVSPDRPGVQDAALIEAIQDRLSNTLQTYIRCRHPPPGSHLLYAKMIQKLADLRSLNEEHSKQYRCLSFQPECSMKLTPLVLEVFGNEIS
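Reagent solutions, kept cold and dark, are dispensed first; compounds are then pinned in at 23 nl, plates briefly spun, and incubated 2 h at ambient temperature. Inhibition of VDR–SRC2-3 peptide binding is read by fluorescence polarization.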
An asterisk follows results filed as active; ? = inconclusive; & = joins results of further samples. On the % scale 0 is the no-effect control and ±100 the full control effect; potency means the concentration at half of the fitted maximal effect.

compound,VDR inh
O=S(=O)(c1cccc(C(F)(F)F)c1)N1CCC(c2cc(-c3cccc4ccccc34)n[nH]2)CC1,?
O=C(c1cccc(Cl)c1)N1CCC(=O)N(C(CO)Cc2ccccc2)CC1 (stereo not given),20%
COc1ccc(-n2c(SCC(=O)Nc3nccs3)nc3c(c2=O)SCC3)cc1,-11%
COc1ccccc1N1CCN(C(=S)Nc2cccc(C)c2)CC1,-27%
COc1ccccc1/C=C1\SC(=S)N(CCC(=O)Nc2ccc(C(=O)O)c(O)c2)C1=O,?
Clc1ccc(-c2nnc3n2CCCC3)cc1Cl,3%
COc1ccc(N2C(=O)CCC(C(=O)N(C)C3CCCCC3)C2c2ccc(OC)c(OC)c2)cc1 (stereo not given),-1%
Cc1occc1C(=O)NC1CCCCCCC1,-16%
CCCOc1ccc(C2C(=O)N(C3CCC(C)CC3)CC(=O)N2CCc2ccccc2)cc1OC (stereo not given),10%
CCOC(=O)C1=C(COC(=O)Cc2c(F)cccc2Cl)NC(=O)NC1C (stereo not given),3%
Cc1ccccc1-c1ccc2ncnc(-n3ccnc3)c2c1,14µM*
Oc1[nH]c2ccccc2c1N=NC(=S)N1CCOCC1,-25%
O=S(=O)(NNc1cccc(Cl)n1)c1ccc(Cl)cc1,4%
Cn1cc(C(=O)N/N=C/c2ccc3c(c2)OCO3)c2ccccc21,-22%
CC(C)(C)NC(=O)C(c1ccccc1F)N(Cc1ccco1)C(=O)c1csnn1 (stereo not given),3%
Cc1ccc2oc(=O)c3cnn(CC(=O)Nc4ccccc4N4CCN(C)CC4)c3c2c1,-1%
Cc1cccc(NC(=O)c2cc(S(=O)(=O)N3CCC4(CC3)OCCO4)ccc2F)c1,-26%&10%
CCn1c(SCC(=O)OC)nc2sc3c(c2c1=O)CC(C)(C)OC3,10%
COc1cccc([C@@H]2Oc3ccc(OC)cc3C[C@H]2OC(=O)N[C@H](C)C2CCCCC2)c1,1%
COc1cc(C(=O)NCCc2ncccc2C)ccc1OC1CCN(C(C)=O)CC1,2%
Cc1nc2c(c(-c3ccccc3)c1C#N)C(=O)c1ccccc1-2,3%
COc1ccc(N2C(=O)[C@@H]3C(c4cccnc4)=NO[C@@H]3C2=O)cc1,-15%
CCOC(=O)C1(Cc2cccc(OC)c2)CCN(Cc2cccc3c2OCO3)CC1,22%
Cc1ccc2cccc(OCC(=O)Nc3cccc(S(=O)(=O)N4CCCC4)c3)c2n1,-18%
CC1Cc2cc(/C(O)=C3/C(=O)C(=O)N(CCCN4CCOCC4)C3c3ccc(C(C)C)cc3)ccc2O1 (stereo not given),-15%
CN(C)c1ccc(NC(=O)CSc2nc(-c3ccco3)cc(C(F)(F)F)n2)cc1,-16%
CC(Oc1cccnc1[N+](=O)[O-])C(=O)Nc1ccc(F)cc1 (stereo not given),3%
CC(C)OC(=O)CSc1nnc(-c2cnccn2)n1-c1ccccc1,1%
CC(C)=C1C2CCC1C1C(=O)N(c3nccs3)C(=O)C21 (stereo not given),-2%
CC(=O)Nc1c(C(=O)Nc2cccc(C)c2)nnn1-c1ccc(C)cc1,-7%
Clc1ccc(OCc2nc(-c3ccc(-n4cccc4)cc3)no2)cc1,?
COc1cccc(CN(C)C(=O)c2ccccc2SCC(=O)N2CCCC2)c1,-28%
N=c1n(Cc2ccccc2)c2ccccc2n1Cc1ccccc1,-12%
COc1ccccc1N(CC(=O)NC1CCCC1)C(=O)CNC(=O)c1cccs1,20%
O=C(NNc1ccccc1[N+](=O)[O-])Nc1ccc(F)cc1F,-26%
CC1CC(C)CN(S(=O)(=O)c2ccc3c(c2)CC(C)N3C(=O)C2CCC2)C1 (stereo not given),8%
COc1ccc(S(=O)(=O)N2CCN(C(=O)c3cc(C)on3)CC2)cc1,-10%
O=C(Nc1cccc(C(=O)O)c1)/C(=C\c1ccc2c(c1)OCO2)NC(=O)c1ccco1,-2%
C=CCn1c(SCC(=O)c2ccc(OC)cc2)nnc1-c1ccc2c(c1)OCO2,-14%
O=C(Nc1ccc(Cl)cc1)Nc1ccc(Oc2cccnc2)nc1,3%

3 entries from above in a different format:
VDR inh	SMILES
20%	COc1ccccc1N(CC(=O)NC1CCCC1)C(=O)CNC(=O)c1cccs1
-26%	O=C(NNc1ccccc1[N+](=O)[O-])Nc1ccc(F)cc1F
8%	CC1CC(C)CN(S(=O)(=O)c2ccc3c(c2)CC(C)N3C(=O)C2CCC2)C1 (stereo not given)

Carrying on.
compound,VDR inh
C/C(=N\NC(=O)c1ccccc1)c1cccc(Br)c1,11%
COc1cc2cc(C(c3nnnn3C(C)(C)C)N3CCC(C)CC3)c(=O)[nH]c2cc1OC (stereo not given),8%
Cc1ccc(SC[C@H](c2ccccc2)N2CCN(CCc3ccccc3)CCC2=O)cc1,-9%
CC(C)Cn1c(SCC(=O)N2CCc3ccccc3C2)nc2cc(Cl)ccc2c1=O,1%
Cn1c2ccccc2c(=O)c2c(=O)n(-c3ccccc3)c(C3CCCCC3)nc21,-7%
Cc1ccc(S(=O)(=O)N(C)c2ccc(OCc3cccc(C)c3)cc2)cc1,-19%
Nc1nc(N)c2sc3nc4c(cc3c2n1)CCC4,4%
COc1cc(C2=NOC(C(=O)Nc3ccc(C(C)=O)cc3)C2)cc(OC)c1OC (stereo not given),-1%
O=C(Nc1cc(C(F)(F)F)ccc1N1CCOCC1)c1ccco1,5%
Nc1c(C(=O)NCC2CCCO2)sc2nc3c(c(-c4ccco4)c12)CC/C3=C\c1ccco1 (stereo not given),?
CCOCCCn1c(=S)[nH]c2cc(C(=O)NC3CCCC(C)C3C)ccc2c1=O (stereo not given),4%
CCc1ccc(CNC(=O)Cn2nc(C)c3c(C)n(-c4ccc(C)cc4)nc3c2=O)cc1,-3%
CCOC(=O)C1=CC[C@@H](c2cccc(C)c2)N(S(=O)(=O)c2ccc(C)cc2)[C@H]1C(=O)OCC,3%
COc1ccccc1C(=O)N1C(CC(=O)Nc2ccccc2C)C(=O)NC2CCCCC21 (stereo not given),12%
COc1ccc(-c2cc(C(F)(F)F)nc(SCC(=O)NCCc3ccccc3)n2)cc1,-21%
CCOC(=O)/C(C#N)=c1/s/c(=C2\C=Cc3ccccc3N2CC)c(=O)n1CC,-12%
CCOC(=O)C1=C(C)NC(SCC(=O)OC)=C(C#N)C1c1ccc(C(=O)OC)cc1 (stereo not given),?
Cc1ccc2cc(NC(=O)c3ccccc3C)ccc2n1,3%
CCCCCn1c(NCc2ccc(OC)cc2)nc2ccccc21,3%
O=C(Nc1ccccc1)N1CCCN(Cc2c(F)cccc2Cl)CC1,-6%
CCCOc1ccccc1C(=O)N(Cc1ccco1)C1CCS(=O)(=O)C1 (stereo not given),-11%
O=C(NCCc1ccccn1)/C(=C/c1ccco1)NC(=O)c1ccccc1,14%
Cc1ccc(S(=O)(=O)N(C)C)cc1NC(=O)CN1CCN(Cc2ccccc2)CC1,-12%
CCN(CC(=O)NC1CCCC1)S(=O)(=O)c1ccc(C)cc1,-10%
COc1ccc(C(=O)Nc2ccc(S(=O)(=O)Nc3cc(C)nc(C)n3)cc2)c(OC)c1,7%
Cc1cc(C)c(-n2c(C)cc(/C=C3/NC(=O)NC3=O)c2C)c(C)c1,6%
Cc1cc(/C=C(\C#N)C(=O)O)c(C)n1CC(C)C,-2%
COc1ccc(/C=N/N=C2/NC(=O)C(c3ccccc3)(c3ccccc3)S2)cc1,-5%
CCOc1ccc(-c2nnc(SCC(=O)Nc3ccc(C)cc3Cl)o2)cc1,7%
COC(=O)C1=C(NC(=O)c2ccc(C)cc2)CCS1,1%
N#Cc1ccc[n+](CC(=O)c2ccc(Cl)cc2)c1,-3%
Cc1ccc(NC(=O)CSc2ccccc2NC(=O)c2ccccc2)cc1Cl,-12%
O=C(CCN1CCc2ccccc2CC1)c1ccc2c(c1)OCCO2,?
O=C(Cn1ncc2c3ccccc3n(Cc3ccccc3)c2c1=O)NCc1ccccn1,-3%&2%
NNc1nc(Nc2ccccc2)nc(N2CCCCC2)n1,-3%
C=CCn1c(SCC(=O)N2CCc3ccccc3C2)nc2sc(C)cc2c1=O,1%
Cc1ccc(N2C(=O)C(Cc3ccccc3)NC2=S)cc1 (stereo not given),17%
Cc1cc([N+](=O)[O-])nn1CCCC(=O)O,10%
O=C(Nc1cccc(F)c1)c1c(F)c(F)c(F)c(F)c1F,-1%
C/C(=N\NC(=O)COc1ccc(C(C)(C)C)cc1)c1ccc(OC(F)F)cc1,-8%
Cc1ccc(Cn2c(=O)n(Cc3ccco3)c(=O)c3ccccc32)cc1,1%
CC(=O)CC(=O)Nc1ncc(C(F)(F)F)cc1Cl,18%
O=C1CCCC2=C1C(c1ccccc1)CC(=O)N2c1ccccc1 (stereo not given),4%
O=C(NCCc1ccccc1)C1CC(=O)N(C2CCCCCC2)C1 (stereo not given),11%
Cc1nc2nc(-c3cccnc3)nn2c(C)c1Cl,10%
Cc1[nH][nH]c(=O)c1C(c1c(C)[nH][nH]c1=O)c1cn(Cc2ccccc2Cl)c2ccccc12,?
O=C(NCC(c1ccco1)S(=O)(=O)c1cccs1)c1ccc(C(F)(F)F)cc1 (stereo not given),17%
COc1ccccc1NC(=O)CNC(=O)CC12CC3CC(CC(C3)C1)C2,-23%
O=C(c1cccc([N+](=O)[O-])c1)N1CCCC(C(=O)N2CCCCC2)C1 (stereo not given),-5%
COc1ccc(OCC(O)CNC(=O)Nc2cc(F)ccc2C)cc1 (stereo not given),2%

Three compounds already listed, sorted by length of the SMILES, high to low.
compound,VDR inh
Cc1[nH][nH]c(=O)c1C(c1c(C)[nH][nH]c1=O)c1cn(Cc2ccccc2Cl)c2ccccc12,?
O=C(c1cccc([N+](=O)[O-])c1)N1CCCC(C(=O)N2CCCCC2)C1 (stereo not given),-5%
Cc1nc2nc(-c3cccnc3)nn2c(C)c1Cl,10%

The results go on:
compound,VDR inh
Cc1ccc(C)c2[nH]c(=O)c(CN(Cc3ccc4c(c3)OCO4)Cc3nnnn3Cc3ccco3)cc12,2%
COc1ccc(-c2noc(-c3ccc(N4CCN(c5ccccc5)CC4)c([N+](=O)[O-])c3)n2)cc1OC,-3%
Cn1cnc(S(=O)(=O)N2CCC(C(=O)Nc3ccc(C#N)cc3)CC2)c1,20%
COc1ccc(-n2c(SCc3ccc([N+](=O)[O-])cc3)nnc2-c2ccccc2)cc1,-20%
CCc1nc(N)c(C#N)c(-c2ccc(OC)c(OC)c2)c1C,0%
O=C(OCC(=O)N1CCCc2ccccc21)c1c(F)cccc1F,-3%
Cc1cccc2c(=O)cc(CSc3ccccc3NC(=O)c3cccc(Cl)c3)[nH]c12,-7%
Cc1csc2ncnc(NCCc3ccccn3)c12,0%
O=C(CN1C(=O)CNC1=O)Nc1cccc(C(F)(F)F)c1,-3%
CCOC(=O)C1(CC2CCCCO2)CCN(C(=O)NCc2ccccc2)CC1 (stereo not given),8%

Some of the entries above in another layout:
Cc1cccc2c(=O)cc(CSc3ccccc3NC(=O)c3cccc(Cl)c3)[nH]c12
  VDR inh: -7%
COc1ccc(-c2noc(-c3ccc(N4CCN(c5ccccc5)CC4)c([N+](=O)[O-])c3)n2)cc1OC
  VDR inh: -3%

Carrying on:
compound,VDR inh
COc1ccc(-c2noc(-c3ccc(NC4CCCC4)c([N+](=O)[O-])c3)n2)cc1OC,-5%
CC(C)Cc1ccc(S(=O)(=O)N2CCN(C(=O)c3ccco3)CC2)cc1,-1%
CCC1=NN(C(=O)Cc2ccc([N+](=O)[O-])cc2)C(O)(C(C)(C)C)C1 (stereo not given),-11%
CCOC(=O)c1ccc(NC(=O)C2=C(C)Nc3nc(SCc4ccc(Cl)cc4)nn3C2c2ccc(C)cc2)cc1 (stereo not given),-1%
Cc1cc(C)nc(/N=C(\N)N2CCCCCC2)n1,-6%
CCC(=NC1CC(C)(C)NC(C)(C)C1)C1=C(O)CC(C)(C)CC1=O,-1%
O=C(CSc1nc2ccccc2[nH]1)NCc1ccco1,8%
COc1cc(NC(=O)Cc2ccccc2)ccc1NC(=O)c1ccccc1,10%
CCOC(=O)CCc1c(C)c2ccc(OC3CCCCC3=O)cc2oc1=O (stereo not given),-23%
COC(=O)C1CCN(S(=O)(=O)CCNC(=O)c2ccc(F)cc2)CC1,1%
Cc1nc(NC(=O)/C=C/c2ccccc2)sc1C(=O)Nc1ccc(Cl)cc1,-7%
CC(=O)c1c(C(C)=O)c(C)n(-c2ccc(N)c(C)c2)c1C,-2%
Cc1cc(Cl)ccc1OCCCC(=O)NCC1CCCO1 (stereo not given),-6%
COc1ccc(S(=O)(=O)N2CCCCCC2)cc1C(=O)Nc1cccc(C)n1,-8%
CCc1ccc(/C=C2\Oc3c(ccc(O)c3CN3CCN(C)CC3)C2=O)cc1,-11%
CCCCCNS(=O)(=O)c1cc2c3c(c1)CCC(=O)N3CCC2,12%
O=C(/C(=C/O)N=Nc1ccc(Cl)cc1)c1ccncc1,?
c1cc(CN2CCCCC2)cc(OCCCNc2nc3ccccc3s2)c1,-5%&7%&0%
N#Cc1ccc(CN2C(=O)c3ccccc3Sc3ccc(C(=O)OCc4ccco4)cc32)cc1,8%
COP(=O)(OC)c1nc(-c2ccc([N+](=O)[O-])cc2)oc1N1CCCCC1,-8%
CC(=O)O[C@H]1CC[C@@]2(C)C(=CC[C@H]3[C@@H]4CC[C@H](C(C)=O)[C@@]4(C)CC[C@@H]32)C1,-24%
OCCN1CCN(CC(O)COc2ccc(C34CC5CC(CC(C5)C3)C4)cc2)CC1 (stereo not given),12%

A portion of the library; count on the stated rates, not on these rows.
